Source: PubChem BioAssay
Sa RN4220 lethal – S. aureus RN4220 growth inhibition; inhibition, % (no concentration beside the values); OD600, 16 h; 330,000 tested, 0.33% active; AID 1259311;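 active means z-score of -3 or lower and OD600 up to 0.18 on both plates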;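 further: plate controls were untreated cells for no effect and reference antibiotic for full effect; stock transfer was 100 nL into about 80 µL; one replicate is shown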
Mtb hypoxia rep – inhibitors of hypoxia-regulated fluorescent reporter in Mycobacterium tuberculosis. M. tuberculosis hypoxia-regulated fluorescent reporter, fluorescence. fluorescence inhibition, % (concentration not given with the values). 300,000 tested, 0.1% active. AID 1159583;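 active means 35 to 45% if threefold the growth effect, above 45% if 1.5-fold the growth effect; inactive means the rest, general growth blockers included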;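 further: wells of about 50 µL received 100 nL stock; 0% = vehicle wells and 100% = reference inhibitor wells; whole bacteria with a GFP reporter of the hypoxia response; strong numbers were not always called active; many hits fall short of the cut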
Autofluor counter – compound fluorescence in toxin protease inhibitor counterscreen; compound autofluorescence counterscreen, microsphere flow cytometry; active compounds read high; fluorescence intensity (concentration not given with the values); 360,000 tested, 3.1% active; AID 624483;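 active means at least 3 SD above the mean of all compounds, about 16000 in these data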;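 further: 100 nL of 1 mM stock went into each well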
PrP UTR inh – suppresses PrP 5' UTR mRNA reporter expression; AID 488862; cell-based PrP 5' UTR mRNA reporter, plate reader; 340,000 tested, 0.35% active; inhibition, % (concentration not given with the values);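 active means every replicate at 50% or more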;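 further: 0 = median of the neutral control wells; tested in H4 reporter cells; numbers are from one replicate; inactives centre near -14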
BJeLR lethal – BJeLR cell viability loss; 300,000 tested, 0.17% active; BJeLR (HRASV12) viability, CellTiter-Glo ATP luminescence, 48 h; reference of the scale not given here; AID 1554; inhibition, % (concentration not given with the values);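 active means replicate mean above 50%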;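 further: 50 nL library stock added to about 25 µL; numbers are from one replicate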
Sa ugtP lethal – compounds lethal to S. aureus RN4220 ugtP deletion mutant; OD600 growth, 16 h; some inactives read as strong as hits; growth inhibition, % (test concentration not listed); 330,000 tested, 0.54% active; AID 1259309;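 active means z-score under -3 and OD600 up to 0.15 on both plates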;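 further: plate controls were untreated wells for no effect and antibiotic for full effect; wells of about 80 µL received 100 nL stock; the first replicate is given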
Mtb hypoxia rep growth – further read-out of Mtb hypoxia rep, marked with its call; growth inhibition, %; measured here: M. tuberculosis growth (absorbance);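 0% = vehicle and 100% = reference antibiotic; read after six days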
The depositor's hits bear a star; · = not tested or not shown; & = joins results of further samples.

SMILES | Sa RN4220 lethal | Mtb hypoxia rep | Mtb hypoxia rep growth | Autofluor counter | PrP UTR inh | BJeLR lethal | Sa ugtP lethal
Cc1cccc(N(C(=O)c2snc(C(N)=O)c2N)C(C(=O)NC2CCCC2)c2ccco2)c1 (stereo unspecified) | 1.6 | 1 | 1 | 3786 | -11 | 2 | 19
COc1ccc(C)cc1NC(=O)C(=O)c1cn(CC(=O)N2CCCC2)c2ccccc12 | -1.6 | -13 | -14 | 6207 | 5 | -6 | -10
COc1cccc(/C=N/NC(=O)c2ccoc2C)c1O | · | · | · | 4325 | -33 | 11 | ·
CCOc1ccccc1NC(=O)n1ncc2c(C)cccc21 | 0.7 | 1 | -8 | 3501 | -20 | -1 | 0
O=C(NN=C1CCCCCC1)c1ccc(Cl)s1 | 1.8 | 1 | 0 | 5242 | -4 | 6 | -2
CCc1cccc2c(C=C(C#N)C#N)cn(CC(=O)N3CCCCC3)c12 | 4.6 | 0 | -4 | 8120 | -3 | -4 | 6
COc1ccc(CCNC(=O)COc2cc(O)c3c(c2)OC(C)(C)CC3=O)cc1OC | 0.6 | · | · | 5488 | -17 | -7 | 1
COc1ccc(C2=CC(=O)CC(c3ccc(F)cc3)C2)cc1F (stereo unspecified) | 2.4 | 8 | 6 | · | · | · | -1
Cc1[nH]c2ccccc2c1C1=CN2CCS(=O)(=O)N=C2S1 | 1.1 | · | · | 2687 | -13 | 1 | -4
COc1cccc(N2CCN(C(=O)c3cn(Cc4ccccc4)nc3-c3cccnc3)CC2)c1 | 1.4 | 1 | 4 | 8899 | 14 | · | 4
COc1ccc(NC(=O)N(C)C[C@H]2Oc3ccc(NC(=O)CCN4CCOCC4)cc3C(=O)N([C@H](C)CO)C[C@@H]2C)cc1 | -6.7 | 4 | 6 | 3279 | -12 | · | -5
CCN1CCN(Cc2ccc(OCc3ccccc3)cc2)CC1 | -0.1 | -3 | 6 | 20089* | -99 | 9 | 0
COc1cc(NC(=O)Nn2cnnc2)cc(OC)c1OC | -3.2 | -3 | -1 | 4384 | -10 | -2 | -3
CC(C)(C)C1C=C(C(N)=O)OC(OCc2ccc(CO)cc2)C1 (stereo unspecified) | 7.2&1.9 | 12&7 | 5&12 | · | · | · | 2&-13
CCOc1ccc(N2C(=O)CC(C(C)c3ccccc3)C2=O)cc1 (stereo unspecified) | 3.0 | 6 | 1 | 3759 | -14 | -2 | 6
Cc1ccc(-n2nc3c(=O)n(CC(=O)NC(C)CCc4ccccc4)nc(C)c3c2C)cc1 (stereo unspecified) | 1.8 | 4 | 2 | 6219 | -18 | 8 | 8
O=C(COC(=O)CSc1ccc2ccccc2c1)NC1CCCC1 | 7.5 | -1 | 0 | 2106 | -35 | 2 | 2
CN(C)CCOC(c1ccccc1)c1ccccc1 | 6.7&5.4 | 4&-1 | -5&4 | 6126&5763 | -15&-7 | 1 | -4&-1
CCOCC(=O)Nc1nnc(COC)s1 | 0.9 | 9 | 10 | 8915 | -5 | -2 | 0
O=C(/C=C/c1ccc(Cl)c(Cl)c1)Nc1cccnc1 | 2.0 | 1 | 6 | 5396 | -66 | 3 | -5
O=c1oc2ccc(Cl)cc2nc1/C=C(\O)c1ccco1 | 1.8 | -2 | 2 | 3539 | -17 | 3 | 7
COc1ccc(S(=O)(=O)NNC(=O)C(=O)NNc2ccccn2)cc1 | -3.3 | 0 | -1 | 4652 | -15 | -2 | 0
CC(=O)Oc1cc(O)c2c(=O)c(OC(C)=O)c(-c3ccc(OC(C)=O)c(OC(C)=O)c3)oc2c1 | 0.3 | · | · | 4173 | -13 | -1 | -8
O=C(NCc1ccccn1)c1ccc2nc(-c3ccco3)c(-c3ccco3)nc2c1 | 9.5 | 5 | -1 | · | · | -5 | 2
O=C(O)C1CC(=O)N(Cc2cccs2)C1 (stereo unspecified) | 0.8 | 1 | 10 | 8000 | 1 | 5 | 1
Additional records:
SMILES | Sa RN4220 lethal | Mtb hypoxia rep | Mtb hypoxia rep growth | Autofluor counter | PrP UTR inh | BJeLR lethal | Sa ugtP lethal
CCOC(=O)c1c(S(=O)(=O)NCC(=O)NCc2ccccc2)c(C)n(C)c1C | 2.9 | 9 | 3 | 4777 | -22 | 3 | 10
O=C(COC(=O)COc1ccccc1F)NCc1ccco1 | 0.6 | 7 | 16 | 3403 | -23 | · | 0
COc1ccc(S(=O)(=O)N(C)c2ccc(C(=O)Nc3c(C)n(C)n(-c4ccccc4)c3=O)cc2)cc1 | -4.7 | 8 | 4 | 5679 | -2 | 11 | 15
OCCNCc1cccc(OCc2ccccc2Cl)c1 | 3.1 | 20 | 13 | 3949 | -15 | 1 | -1
CC1(C)CC(C#N)(N2CCOCC2)CCO1 (stereo unspecified) | 2.5 | 2 | 10 | 19964* | -17 | -13 | 1
CCc1cc2c(CN3CCN(CC)CC3)cc(=O)oc2cc1O | 2.6 | 12 | 10 | 9965 | -21 | 8 | 4
Cc1cccc(Cn2nc(C)cc2NC(=O)Cn2cc([N+](=O)[O-])cn2)c1 | 4.4 | 14 | 1 | 4317 | -23 | -24 | 9
O=C(c1ccc2nc(N3CCOCC3)sc2c1)N1CCN(C(=O)c2ccco2)CC1 | 0.4 | 2 | -1 | 6945 | -24 | 5 | 1
COc1ccccc1NS(=O)(=O)c1cc(NC(=NS(=O)(=O)c2ccccc2)c2ccc(F)cc2)ccc1Cl | 12 | -3 | 3 | · | · | · | -31
CCCCCN(C(=O)CCC(=O)OCC(=O)c1ccc(C(C)(C)C)cc1)c1c(N)n(CCCC)c(=O)[nH]c1=O | 9.4 | 4 | -4 | 5979 | -16 | 9 | 9
Cc1cccc(CSc2nnc3c(n2)[nH]c2ccccc23)c1 | 5.5 | 10 | 12 | 4457 | -25 | -3 | -3
CC1(C)CC(NC(=O)C23CCC(C)(/C(=N/O)C2)C3(C)C)CC(C)(C)N1 (stereo unspecified) | · | · | · | 22387* | 1 | -1 | ·
CCS(=O)(=O)N1CCCC(C(=O)Oc2ccc(Br)cc2)C1 (stereo unspecified) | -2.1 | -1 | 15 | 3886 | 5 | 5 | -11
CCOc1ccc(CCNC(=O)COC(=O)COc2ccc(Br)cc2)cc1OCC | 2.2 | 3 | 4 | 6350 | -21 | 8 | 3
CCOC(=O)N1CCN(C(=O)c2cc(-c3ccc(F)cc3)[nH]c2C)CC1 | 3.2 | 4 | 3 | 4429 | -14 | -2 | 3
COc1ccc(C(CNC(=O)C2CC(=O)N(Cc3ccccc3)C2)N2CCCC2)cc1 (stereo unspecified) | 0.3 | 3 | 6 | 8054 | -1 | · | 7
S=C(NCc1cccs1)Nc1cccc(Cl)c1 | -3.3 | 6 | 9 | 18567* | -13 | -5 | -23
CN(C)C=C1Oc2ccc3ccccc3c2C1=O | 3.1 | · | · | · | · | · | 0
COc1ccccc1C(=O)Nc1nnc(SCC(=O)NC2CCCC2)s1 | 1.2 | 1 | 8 | 4376 | -48 | 13 | 0
Cc1ccc(S(=O)(=O)NNC(=S)Nc2ccc(Cl)cc2)cc1 | 3.8 | 17 | 4 | 5417 | -21 | 5 | 3
Cc1cc(/C=C2/SC(=S)N(c3ccc([N+](=O)[O-])cc3)C2=O)c(C)n1-c1cccnc1 | 4.4 | 9 | -1 | 4024 | -13 | 9 | -2
CCN(CC)CCCC(C)NC(=O)c1c(NC(=O)c2ccccc2)sc2c1CCCC2 (stereo unspecified) | 1.0 | 9 | 8 | 3727 | -18 | -1 | 15
CCOC(=O)c1ccc(Nc2ncnc3ccc(C)cc23)cc1 | 0.2 | · | · | 2530 | -12 | 3 | 2
CC(=O)Nc1ccc(S(=O)(=O)N(CCc2ccccc2)CC(=O)NN=Cc2ccc(C(=O)O)cc2)cc1 | 0.5 | -2 | 9 | · | · | · | 3
O=C(CSc1n[nH]c(-c2ccncc2)n1)c1ccccc1 | -0.3 | -5 | 2 | 9102 | -30 | 3 | -8

Another view of part of the listing above.
Results follow in this order: Sa RN4220 lethal, Mtb hypoxia rep, Mtb hypoxia rep growth, Autofluor counter, PrP UTR inh, BJeLR lethal, Sa ugtP lethal
- CCc1cc2c(CN3CCN(CC)CC3)cc(=O)oc2cc1O
    2.6, 12, 10, 9965, -21, 8, 4
- Cc1cccc(Cn2nc(C)cc2NC(=O)Cn2cc([N+](=O)[O-])cn2)c1
    4.4, 14, 1, 4317, -23, -24, 9
- O=C(c1ccc2nc(N3CCOCC3)sc2c1)N1CCN(C(=O)c2ccco2)CC1
    0.4, 2, -1, 6945, -24, 5, 1
- COc1ccccc1NS(=O)(=O)c1cc(NC(=NS(=O)(=O)c2ccccc2)c2ccc(F)cc2)ccc1Cl
    12, -3, 3, ·, ·, ·, -31

The listing continues.
SMILES | Sa RN4220 lethal | Mtb hypoxia rep | Mtb hypoxia rep growth | Autofluor counter | PrP UTR inh | BJeLR lethal | Sa ugtP lethal
CC[C@]12c3[nH]c4ccc(OC)cc4c3CCN1C(=O)C(CC(=O)NCc1ccc(OC)c(OC)c1)C[C@@H]2C(=O)N1CCN(C(=O)C2CC2)CC1 (stereo partly specified) | 2.6 | -7 | -5 | 4037 | 1 | · | 8
CC1(C)CC(=O)C(CC2CCCCC2=O)C(=O)C1 (stereo unspecified) | 1.0 | 10 | 16 | 4550 | 12 | -9 | 11
COc1ccc(CCNC(=O)C(=O)NCCOc2ccccc2)cc1OC | 4.3 | 0 | 4 | 2522 | -10 | -25 | 5
C=CCC(C#Cc1ccccc1)N(C)C (stereo unspecified) | 4.0 | · | · | 2384 | -12 | 4 | -3
O=[N+]([O-])c1ccc(Nc2ccc(N3CCOCC3)cc2)c([N+](=O)[O-])c1 | 17 | -7 | -8 | 2266 | -13 | -3 | 23
Cc1ccc(S(=O)(=O)N(C)CC(=O)OCC(=O)N2CCCC2=O)cc1 | 9.0 | -4 | 15 | 3165 | -4 | -2 | 6
Cc1cc(C(=O)N/N=C/c2ccc([N+](=O)[O-])s2)n[nH]1 | · | · | · | 4213 | -8 | 4 | ·
Cc1cc(NS(=O)(=O)c2ccc(NC(=O)CSc3nc4sc(C)c(C)c4c(=O)[nH]3)cc2)no1 | 3.4 | 12 | -2 | 3376 | -39 | 2 | 1
Cn1c(Cc2ccccc2)nnc1SCC(=O)Nc1ccc(N2CCOCC2)cc1 | 3.2 | 5 | 10 | 5362 | -23 | 11 | 16
O=C(O)c1ccc(NN=Cc2ccc(OC(=O)c3ccccc3Cl)cc2)cc1 | 5.0 | 18 | 7 | · | · | · | -15
NNC(=O)c1ccc(Cn2cc(Cl)cn2)cc1 | 0.4 | -7 | -5 | 8220 | -20 | -4 | 5
c1ccc(Cc2nc3ccccc3n2Cc2ccccc2)cc1 | -0.6 | 3 | -4 | 9501 | 8 | -2 | 21
O=C(Nc1ccccc1)O/N=C1\CCCCC1c1ccc([N+](=O)[O-])cc1[N+](=O)[O-] (stereo unspecified) | · | · | · | 4202 | -29 | -6 | ·
Cc1ccc(NC(=O)c2ccc([N+](=O)[O-])o2)cc1S(=O)(=O)N1CCOCC1 | 29 | 14 | 18 | 4620 | -48 | -16 | 56
COc1cc(-c2nc(CN3CCN(CC(C)C)C(=O)[C@@H]3C)c(C)o2)ccc1F | 0.1 | 3 | 5 | 2869 | 7 | 0 | 3
COc1ccc(NC(=O)CN(C)S(=O)(=O)c2cccc3cccnc23)cc1 | 2.1 | · | · | 3896 | 4 | -3 | 10
FC(F)(F)c1ccc2nnc(-c3c(Cl)cccc3Cl)n2c1 | 1.0 | 4 | 4 | 3718 | 1 | 1 | -4
CCc1ccc2c(c1)/C(=C/C(=O)c1cccs1)C(=O)N2 | 97* | 15 | 25 | 9009 | -1 | -4 | 97*
CCOC(=O)N1CCN(C(=O)CN(C)S(=O)(=O)c2ccc3c(c2)c(=O)n(C)c(=O)n3C)CC1 | 8.4 | 10 | 5 | 4679 | -24 | -2 | 19
Cc1ccsc1C(=O)OCC(=O)c1cc2ccccc2o1 | 9.9 | 6 | 15 | 4522 | -46 | -6 | -6
C[C@@]12C(=O)Nc3ccccc3C(=O)N1C1c3cc(Br)ccc3OCC1C2c1ccccc1 (stereo partly specified) | -12 | -1 | 5 | · | · | · | -2
NC(=O)c1oc2ccccc2c1NC(=O)c1nc2ccccc2s1 | 0.5 | · | · | 6593 | -69 | -12 | 0
O=C(N/N=C/c1cccnc1)C1CCCN(S(=O)(=O)c2ccccc2)C1 (stereo unspecified) | · | · | · | 2585 | -9 | 10 | ·
Cc1ccc(OCCn2c(CCCO)nc3ccccc32)cc1 | 6.4 | 5 | 3 | 3660 | -22 | -6 | 1
Cc1ccc(-n2c(C)cc(/C=C3/C(=O)NC(=O)N(C)C3=O)c2C)cc1 | -2.6 | 17 | 13 | 2634 | 0 | 10 | -6
